MLL AF4-AF9 inh: inhibitors of AF4 peptide binding to AF9, primary screen, biochemical, AlphaScreen, biotin-AF4 peptide, FLAG-AF9, single point; inhibition, % at 10 µM; actives 0.47% (n = 350,000); AID 651704, 2012;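 active = every replicate reaching a set inhibition limit, whatever the replicate mean, cut at about 25% in these data; inconclusive = mean inhibition reaches that limit but some replicates miss it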;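 also: 0% = plate neutral control median and 100% = total signal loss; the record names both 10 and 1 µM as test concentration; the first replicate is given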
Target sequence (P42568 whole entry, looked up): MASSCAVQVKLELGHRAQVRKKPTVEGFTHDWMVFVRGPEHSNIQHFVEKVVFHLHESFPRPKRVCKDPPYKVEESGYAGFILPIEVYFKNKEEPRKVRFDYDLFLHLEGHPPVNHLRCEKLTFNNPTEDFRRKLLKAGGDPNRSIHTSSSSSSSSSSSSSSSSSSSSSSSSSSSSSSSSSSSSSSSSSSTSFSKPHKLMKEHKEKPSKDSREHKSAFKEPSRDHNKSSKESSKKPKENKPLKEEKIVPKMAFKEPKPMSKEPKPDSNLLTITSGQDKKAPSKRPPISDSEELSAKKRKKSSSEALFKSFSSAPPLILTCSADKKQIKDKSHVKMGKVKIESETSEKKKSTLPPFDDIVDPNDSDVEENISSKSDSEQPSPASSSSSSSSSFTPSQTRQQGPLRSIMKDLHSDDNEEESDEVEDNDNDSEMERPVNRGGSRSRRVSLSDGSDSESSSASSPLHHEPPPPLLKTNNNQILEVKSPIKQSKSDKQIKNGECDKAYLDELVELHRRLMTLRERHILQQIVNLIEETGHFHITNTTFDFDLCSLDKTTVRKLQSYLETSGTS
FGF22 binding: binders of human FGF22 protein, primary screen, FGF22 synaptogenesis inhibitor project, biophysical, thermal shift, single point. recombinant FGF22 thermal shift, SYPRO orange fluorescence; percent of sucrose octasulfate shift, DMSO zero. calls only at 9.99 µM. actives 1.5% (n = 340,000);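 active = melting point raised past a set limit in the mean and every replicate; inconclusive = no clear call; three in four hits are not shown here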
Target sequence (Q9HCT0 whole entry, looked up): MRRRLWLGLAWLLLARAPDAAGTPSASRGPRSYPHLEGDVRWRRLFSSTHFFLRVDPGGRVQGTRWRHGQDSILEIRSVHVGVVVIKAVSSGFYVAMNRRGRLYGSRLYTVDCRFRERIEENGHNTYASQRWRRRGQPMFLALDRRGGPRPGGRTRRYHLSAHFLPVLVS
rRNA inh HTS: reduced GFP signal of wild-type E. coli, primary screen, bacterial rRNA inhibitor project, GFP/RFP fluorescence, OD600, single point. E. coli WT GFP vs humanized-ribosome RFP mutants, 24 h; active compounds read low; DMSO median 0, no signal -100. GFP signal change (wild-type ribosome), % (test concentration not listed). actives 1.6% (n = 350,000);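 active = significant combined selectivity score with lowered wild-type GFP, culture density cut under 30%, mutant RFP and density less affected; inactive = any of these conditions unmet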; also: one replicate is shown; some compounds called inactive have numbers as strong as hits
rRNA inh HTS OD600: second read-out of rRNA inh HTS, no call of its own (marks repeat the call); OD600 change, %; measured here: OD600 growth;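 optical density of the mix in the first replicate; 0 = DMSO median and -100 = no signal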
rRNA inh HTS RFP: recorded beside rRNA inh HTS, whose call it bears; RFP signal change, %; measured here: RFP humanized mutant strains;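 first replicate; 0 = DMSO median and -100 = no signal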
Starred values were filed as active, the others as inactive; i = inactive; ? = inconclusive; & = joins results of further samples. These rows are one share of the data (hit frequency here may not be typical).

MLL AF4-AF9 inh	FGF22 binding	rRNA inh HTS	rRNA inh HTS OD600	rRNA inh HTS RFP	molecule
-2.6	i	-3	-3	1.7	Cc1ccc(S(=O)(=O)N(C)C[C@@H]2Oc3c(NS(=O)(=O)c4ccccc4)cccc3C(=O)N([C@@H](C)CO)C[C@@H]2C)cc1
-3.5	i	1	-2	0.3	COc1ccc2c3c([nH]c2c1)[C@H](CO)N(Cc1ccccn1)CC31CCN(C(C)=O)CC1
-0.2	i	0	5	2.8	COc1ccc(S(=O)(=O)Nc2ccc3c(c2)C(=O)N([C@@H](C)CO)C[C@H](C)[C@H](CN(C)S(=O)(=O)c2ccc(C)cc2)OCCCC[C@H](C)O3)cc1
2.6	i	-49	-61	9.8	COc1cccc(S(=O)(=O)Nc2ccc3c(c2)[C@H]2C[C@H](CC(=O)NCc4ccc(Cl)cc4)O[C@H](CO)[C@H]2O3)c1
2.6	i	-22	-36	-6.0	Cc1ccc(S(=O)(=O)c2ccc([N+](=O)[O-])o2)cc1
0.8	i	0	12	-2.8	COc1ccccc1CN1CCNC(=O)C1CC(=O)N(C)C1CCOCC1 (stereo not given)
-0.3	i	0	4	-0.9	C[C@@H](NC(=O)C[C@H]1CC[C@H]2[C@@H](COC[C@H](O)CN2C(=O)Nc2ccccc2)O1)c1ccccc1
-1.3	i	21	18	4.1	COCCCN1C(=O)C(CC(=O)NCc2ccco2)CC(C(=O)N2CCOCC2)=C1C (stereo not given)
-3.0	i	15	19	7.1	CCOC(=O)[C@]12CCCC=C1N(CCc1ccc(OC)c(OC)c1)C(=O)[C@H](CC(=O)NCCCN1CCCC1=O)C2
7.9	i	-10	-23	0.3	C/C=C/c1ccc2c(c1)O[C@H](CN(C)S(=O)(=O)c1ccccc1)[C@H](C)CN([C@@H](C)CO)S2(=O)=O

A section from the list above, for reference:
MLL AF4-AF9 inh	FGF22 binding	rRNA inh HTS	rRNA inh HTS OD600	rRNA inh HTS RFP	molecule
-2.6	i	-3	-3	1.7	Cc1ccc(S(=O)(=O)N(C)C[C@@H]2Oc3c(NS(=O)(=O)c4ccccc4)cccc3C(=O)N([C@@H](C)CO)C[C@@H]2C)cc1
-3.5	i	1	-2	0.3	COc1ccc2c3c([nH]c2c1)[C@H](CO)N(Cc1ccccn1)CC31CCN(C(C)=O)CC1

More structures:
MLL AF4-AF9 inh	FGF22 binding	rRNA inh HTS	rRNA inh HTS OD600	rRNA inh HTS RFP	molecule
-1.2	i	6	2	1.8	C[C@H](CO)N1C[C@H](C)[C@H](CN(C)C(=O)Nc2cccc3ccccc23)OCCCC[C@H](C)Oc2ccc(NC(=O)c3ccccc3)cc2C1=O
-3.9	i	5	5	-0.9	CO[C@H]1CN(C)C(=O)c2ccc(NS(=O)(=O)c3cn(C)cn3)cc2OC[C@@H](C)NC[C@H]1C
3.2	i	-5	-2	1.5	C[C@@H]1CN([C@@H](C)CO)C(=O)c2cccc(NC(=O)c3ccc(-c4nccs4)cc3)c2O[C@@H]1CN(C)C(=O)Nc1ccc(F)cc1
0.7	i	4	7	1.5	COc1ccc(NC(=O)Nc2ccc3c(c2)CC(=O)N([C@H](C)CO)C[C@@H](C)[C@H](CN(C)S(C)(=O)=O)O3)cc1
-4.7	i	0	2	-0.5	COc1ccccc1CNC(=O)C[C@H]1CC[C@H](NC(C)=O)[C@H](CO)O1
-7.2	i	14	27	1.8	CCN(CC)C(=O)c1ccc2nc([C@H]3C[C@H](O)[C@@H](CO)O3)[nH]c2c1
1.1	i	-2	6	-11	O=c1c(O)c(-c2ccc(O)c(O)c2)oc2cc(O)ccc12
-4.0	i	3	-1	-1.7	C[C@@H]1CN([C@H](C)CO)C(=O)c2cc(C3=CCCC3)cnc2O[C@@H]1CN(C)S(=O)(=O)c1cn(C)cn1
1.7	i	-1	-7	-1.8	COCC#Cc1ccc2c(c1)O[C@@H](CN(C)C)[C@H](C)CN([C@H](C)CO)S2(=O)=O
-2.0	i	7	8	-3.0	CC(=O)N(C)C[C@@H]1Oc2cc(-c3cncnc3)ccc2S(=O)(=O)N([C@@H](C)CO)C[C@H]1C

4 entries from above, set out differently:
Values run as follows: MLL AF4-AF9 inh, FGF22 binding, rRNA inh HTS, rRNA inh HTS OD600, rRNA inh HTS RFP
- Cc1ccc(S(=O)(=O)N(C)C[C@@H]2Oc3c(NS(=O)(=O)c4ccccc4)cccc3C(=O)N([C@@H](C)CO)C[C@@H]2C)cc1
 : -2.6, i, -3, -3, 1.7
- C[C@@H](NC(=O)C[C@H]1CC[C@H]2[C@@H](COC[C@H](O)CN2C(=O)Nc2ccccc2)O1)c1ccccc1
 : -0.3, i, 0, 4, -0.9
- COc1ccc2c3c([nH]c2c1)[C@H](CO)N(Cc1ccccn1)CC31CCN(C(C)=O)CC1
 : -3.5, i, 1, -2, 0.3
- COc1ccc(S(=O)(=O)Nc2ccc3c(c2)C(=O)N([C@@H](C)CO)C[C@H](C)[C@H](CN(C)S(=O)(=O)c2ccc(C)cc2)OCCCC[C@H](C)O3)cc1
 : -0.2, i, 0, 5, 2.8

Following part
MLL AF4-AF9 inh	FGF22 binding	rRNA inh HTS	rRNA inh HTS OD600	rRNA inh HTS RFP	molecule
0.0	i	3	13	-1.6	CCc1nc2ccc(C(=O)NCCCN3CCCC3=O)cn2c1N(C)C(=O)C1CCCCC1
-1.7	i	17	18	-1.7	CC(C)(C)OC(=O)NCCc1onc(-c2cccc([N+](=O)[O-])c2)c1C(=O)O
1.3	i	-1	0	-3.8	COc1ccc(NC(=O)N(C)C[C@H]2OCCCC[C@@H](C)Oc3ccc(NC(=O)c4ccccc4)cc3C(=O)N([C@@H](C)CO)C[C@@H]2C)cc1
-4.7	i	11	12	0.2	CCOc1ccc(C2C3=C(CC(C)(C)CC3=O)N(CCCOC)C3=C2C(=O)CC(C)(C)C3)cc1OC
-4.8	i	-3	0	-1.4	C[C@H](CO)N1C[C@H](C)[C@H](CN(C)C(=O)Nc2ccc(F)cc2)OCCCC[C@H](C)Oc2ccc(NC(=O)NC3CCCCC3)cc2C1=O
-0.3	i	6	5	-0.1	O=C(c1ccccn1)N1C[C@@H]2[C@H](c3ccccc31)[C@H](CO)N2C(=O)C1CC1
0.0	i	-23	-35	5.0	COC(=O)C[C@@H]1CC[C@H]2[C@@H](COC[C@@H](O)CN2C(=O)Nc2cccc(F)c2)O1
-0.1	i	-1	-3	0.1	CCC(=O)Nc1ccc2c(c1)OC[C@H](C)N(CC1CCOCC1)C[C@H](C)[C@@H](OC)CN(C)C2=O
2.2	i	-3	-5	0.4	C[C@H](CO)N1C[C@H](C)[C@H](CN(C)Cc2ccccc2C(=O)O)Oc2cc(-c3ccccc3)ccc2S1(=O)=O
-0.6	i	2	-10	-0.1	O=C(O)c1cc2c(cc1NC(=O)C1CCCC1)OCCO2
-0.1	i	1	5	-1.6	C/C=C/c1ccc([C@@H]2[C@@H](CO)N[C@@H]2CN(C(=O)C2CCC2)C(C)C)cc1
2.2	i	-6	5	2.6	FC(F)(F)c1ccc(-c2cccc3c2C2CC3CCN2Cc2ccc3c(c2)OCO3)cc1 (stereo not given)
2.9	i	4	-9	-1.2	COc1ccc2c3c(n(C)c2c1)[C@@H](CO)N(Cc1cc(F)ccc1F)CC31CCN(C(=O)C2CC2)CC1
-3.5	i	6	4	-0.9	CCCCCCCCN1CC(Cc2cc3ccccc3c3ccccc23)N(c2ccccc2)c2ccccc2C1=O (stereo not given)
-3.6	i	-18	-22	-5.1	Cc1ccccc1-c1nc(NC(C)C)nc2ccsc12
-1.7	i	4	1	7.4	C[C@@H]1CCCCO[C@H](CN(C)C(=O)Nc2cccc3ccccc23)[C@@H](C)CN([C@H](C)CO)C(=O)c2cc(NS(=O)(=O)c3ccc(Cl)cc3)ccc2O1
-1.4	i	-2	2	0.1	C[C@@H]1CN([C@H](C)CO)C(=O)c2cccc(NS(=O)(=O)c3ccc(Cl)cc3)c2O[C@H]1CN(C)Cc1ccc(C(=O)Nc2ccccc2N)cc1
?	i	2	9	1.1	O=C(c1cc(S(=O)(=O)N2CCOCC2)c(Cl)cc1Cl)N1CCCC1
-2.3	i	1	1	0.6	O=C(NCC[C@@H]1CC[C@H](NC(=O)C2CC2)[C@H](CO)O1)c1ccc(F)cc1
-3.6	i	0	0	0.2	C[C@H](CO)N1C[C@H](C)[C@H](CN(C)C(=O)Nc2ccccc2)Oc2ccc(NS(=O)(=O)c3cn(C)cn3)cc2CC1=O

Limited to rRNA inh HTS OD600, for two of the compounds above:
Compound	rRNA inh HTS OD600
COC(=O)C[C@@H]1CC[C@H]2[C@@H](COC[C@@H](O)CN2C(=O)Nc2cccc(F)c2)O1	-35
CCC(=O)Nc1ccc2c(c1)OC[C@H](C)N(CC1CCOCC1)C[C@H](C)[C@@H](OC)CN(C)C2=O	-3

Next entries.
MLL AF4-AF9 inh	FGF22 binding	rRNA inh HTS	rRNA inh HTS OD600	rRNA inh HTS RFP	molecule
0.6	i	-1	-4	1.7	CO[C@H]1CN(C)C(=O)c2cc(NC(=O)C3CC3)ccc2OC[C@@H](C)N(Cc2ccc(F)cc2)C[C@H]1C
0.2	i	0	1	-2.9	C[C@@H]1CN([C@@H](C)CO)C(=O)CCCn2cc(nn2)CO[C@@H]1CN(C)C(=O)Nc1cccc(Oc2ccccn2)c1
-1.1	i	3	0	1.5	O=C(O)C[C@H]1C[C@H]2c3cc(NC(=O)c4ccc5c(c4)OCO5)ccc3O[C@H]2[C@H](CO)O1
0.8	i	-5	-17	-2.6	CN(C(=O)COC(=O)c1cccc(S(=O)(=O)N2CCCCCC2)c1)c1ccccc1
1.8	i	0	-2	-1.0	Cc1ccc(NC(=O)c2ccc(Cl)c(S(=O)(=O)Nc3c(C)n(C)n(-c4ccccc4)c3=O)c2)cc1Cl
0.4	i	-1	-10	3.9	C[C@H](CO)N1C[C@H](C)[C@@H](CN(C)Cc2ccc(Cl)c(Cl)c2)OCCCC[C@H](C)Oc2ccc(NC(=O)NC3CCCCC3)cc2C1=O
-0.6	i	2	-2	-1.4	CNC(=O)C[C@@H]1CC[C@H]2[C@@H](COc3ccc(NC(=O)c4ccc(OC)cc4)cc3C(=O)N2C)O1
5.5	i	1	9	-3.1	C[C@H]1CN([C@@H](C)CO)C(=O)CCCn2cc(nn2)CO[C@H]1CN(C)C(=O)Nc1ccc(N2CCN(C)CC2)cc1
0.9	i	-2	-5	2.2	O=C(C1CCC1)N1C[C@H]2[C@@H](c3ccccc31)[C@@H](CO)N2C(=O)Nc1cccc(F)c1
-0.6	i	2	8	1.4	COc1ccc(CN(C)C[C@@H]2Oc3c(NS(=O)(=O)c4ccc(OC)cc4)cccc3C(=O)N([C@@H](C)CO)C[C@@H]2C)cc1
-3.3	i	3	2	-3.6	CC(=O)N(C)C[C@@H]1Oc2cc(C3=CCCC3)ccc2S(=O)(=O)N([C@H](C)CO)C[C@H]1C
-3.9	i	-20	-31	-2.2	Cc1cc(NC(=O)CS(=O)c2cn(Cc3cccc(Cl)c3)c3ccccc23)no1 (stereo not given)
3.1	i	-12	-14	3.4	COc1cccc(-c2cnc(C(O)c3ccc(F)cc3)[nH]2)c1 (stereo not given)
-6.6	i	0	7	0.8	O=C(C[C@H]1CC[C@H](NC(=O)Nc2ccc(F)cc2)[C@@H](CO)O1)NCCN1CCCC1
9.1	i	13	10	1.1	O=C(Nc1ccccc1Cl)OCC#CCOC(=O)Nc1ccccc1Cl
1.4&-2.8	i	1&0	1&4	0.5&-0.5	C[C@@H]1CN([C@@H](C)CO)C(=O)CCCn2cc(nn2)CO[C@H]1CN(C)S(=O)(=O)c1ccccc1C#N
3.4	i	-7	-30	10	O=C(C[C@H]1CC[C@H]2[C@@H](COC[C@H](O)CN2Cc2nccs2)O1)NCc1ccc(Oc2ccccc2)cc1
-26	i	0	-21	0.0	C[C@H]1CN([C@@H](C)CO)C(=O)Cc2cc(NC(=O)Nc3ccc(C(F)(F)F)cc3)ccc2O[C@@H]1CN(C)Cc1ccccc1
-5.0	i	3	9	-0.1	CC(C)NC(=O)N(C)C[C@@H]1Oc2ccc(NC(=O)CCC(F)(F)F)cc2C(=O)N([C@@H](C)CO)C[C@@H]1C
-1.1	i	-4	-15	-0.8	O=C(NCc1ccccc1)c1cc(C2CCCCN2S(=O)(=O)c2cccc3cccnc23)on1 (stereo not given)
5.7	i	-1	8	1.5	CCN1CCN(c2ccc(NC(=O)c3ccc(Cl)c(S(=O)(=O)N4CCCC4)c3)cc2)CC1
-0.2&-0.4	i	5&8	3&8	-1.4&2.4	CCC(=O)N[C@H]1C=C[C@H](CC(=O)OC)O[C@@H]1CO
0.8	i	-1	1	-1.5	C[C@H]1CN([C@@H](C)CO)C(=O)CCCn2cc(nn2)CO[C@@H]1CN(C)Cc1ccc(Cl)c(Cl)c1
1.8&-1.4	i	3&3	0&0	1.5&2.4	COc1ccc(S(=O)(=O)N(C)C[C@H]2OCc3cnnn3CCCC(=O)N([C@@H](C)CO)C[C@H]2C)cc1
